# Bioassay records: PubChem, several laboratories
# PABP FP inh – PABP poly(A) RNA binding inhibitors, primary screen, biochemical, fluorescence polarization, uHTS; Polyadenylate-binding protein 1 (Homo sapiens), P11940; inhibition, % at 35 µM; 290,000 tested, 1% active; AID 2014, 2009;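 active = 50% or more with normal probe brightness, or confirmed in later tests; about a fifth of its hits are not listed in these tables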;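 note: calls also rest on retests at 20 µM and on dose response follow-up; controls were probe without protein and protein plus probe with vehicle; some compounds called inactive have numbers as strong as hits; many hits fall short of the cut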
# Target sequence (P11940 whole entry, looked up): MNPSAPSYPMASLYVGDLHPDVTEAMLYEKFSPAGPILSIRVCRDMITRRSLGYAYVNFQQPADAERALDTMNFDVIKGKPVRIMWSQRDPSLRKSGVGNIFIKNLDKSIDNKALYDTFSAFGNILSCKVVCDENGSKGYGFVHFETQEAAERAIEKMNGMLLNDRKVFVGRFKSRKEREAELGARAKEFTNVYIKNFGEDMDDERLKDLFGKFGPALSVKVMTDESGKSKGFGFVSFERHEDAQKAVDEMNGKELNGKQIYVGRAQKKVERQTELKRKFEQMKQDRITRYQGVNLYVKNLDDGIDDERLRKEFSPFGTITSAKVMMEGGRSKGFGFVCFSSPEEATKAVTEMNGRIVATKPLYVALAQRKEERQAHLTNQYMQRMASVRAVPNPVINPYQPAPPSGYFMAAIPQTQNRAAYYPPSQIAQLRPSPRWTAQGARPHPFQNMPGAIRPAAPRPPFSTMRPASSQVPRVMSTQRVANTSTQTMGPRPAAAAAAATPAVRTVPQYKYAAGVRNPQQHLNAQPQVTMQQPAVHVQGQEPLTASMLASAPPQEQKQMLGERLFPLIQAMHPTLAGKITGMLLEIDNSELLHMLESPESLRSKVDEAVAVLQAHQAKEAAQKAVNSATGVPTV
# Rce1 inhib – yeast Rce1p protease inhibitors, primary screen, biochemical, fluorescence, cell-free homogeneous; CAAX prenyl protease 2 (Saccharomyces cerevisiae (strain ATCC 204508 / S288c)), Q03530; AID 2563, 2010; 290,000 tested, 0.27% active; calls only; yeast membranes, quenched prenylated peptide cleavage fluorescence;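 active = fall in fluorescence gain of 50% or more versus controls, with final raw signal at or below 3038400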;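 note: plate controls were neutral control wells for no effect and wells lacking membranes for full effect; tested at 10 µM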
# Target sequence (Q03530 whole entry, looked up): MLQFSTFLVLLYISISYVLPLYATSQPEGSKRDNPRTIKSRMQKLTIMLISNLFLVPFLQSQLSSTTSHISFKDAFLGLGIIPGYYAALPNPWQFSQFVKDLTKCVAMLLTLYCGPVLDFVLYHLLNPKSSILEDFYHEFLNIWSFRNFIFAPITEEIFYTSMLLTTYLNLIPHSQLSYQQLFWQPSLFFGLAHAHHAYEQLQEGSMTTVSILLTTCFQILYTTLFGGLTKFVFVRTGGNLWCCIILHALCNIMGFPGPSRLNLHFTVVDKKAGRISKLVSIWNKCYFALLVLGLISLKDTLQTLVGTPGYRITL
# CSC inhib – cancer stem cell viability inhibitors, primary screen, luminescence; AID 2717, 2010; inhibition, % at 7.5 µM; cancer stem cell-like cells viability; 300,000 tested, 1.1% active;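 active = mean at 75% or more and at least half the replicates too; tested in HMLE shEcad cells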;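 note: 0% = median of negative and 100% = median of positive control wells; the first replicate is given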
# HIV Env fusion – inhibitors of HIV-1 Env-driven cell-cell fusion, primary screen, HeLa-JRFL effector, CEM21 target cells, luciferase | inhibition, % at 12.3 µM | 360,000 tested, 1.1% active;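 active = mean replicate inhibition score of at least 50 and every replicate individually at or above 50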;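 note: 0% = plate neutral controls and 100% = maraviroc near 300 nM; one replicate is shown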
# UUG fidelity – modulators of yeast start codon fidelity, primary screen, whole organism, S. cerevisiae, single point, plate reader; S. cerevisiae UUG-firefly luciferase reporter, luminescence/redox ratio; activity score, % at 18.7 µM; 350,000 tested, 0.13% active; AID 602363, 2012;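 active = replicate mean at a twofold rise or more, about +100% in these data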;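 note: firefly luciferase made from a UUG start codon reports start codon fidelity; reporter light over untreated wells divided by growth signal over untreated wells; some hits fall short of that in this replicate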
# eIF4H FP inh – human eIF4H binding inhibitors, primary screen, translation initiation inhibitor project, biochemical, uHTS, fluorescence polarization | AID 2012, 2009 | eIF4H fluorescence polarization binding assay | Eukaryotic translation initiation factor 4H (Homo sapiens), Q15056 | 290,000 tested, 0.94% active | inhibition, % at 35 µM;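 active = 50% or more with normal probe brightness, or confirmed in later tests; about a fifth of its hits are not listed in these tables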;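 note: calls also rest on retests at 20 µM and on dose response follow-up; 0% = protein and probe with vehicle and 100% = probe without protein; strong numbers were not always called active; many hits fall short of the cut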
# MT1-MMP act inh – blockers of MT1-MMP proenzyme processing, primary screen, HT1080 RFP-PRO-GFP cells, GFP/RFP fluorescence | AID 651647, 2012 | Matrix metalloproteinase-14 (Homo sapiens), P50281 | GFP/RFP ratio change, % at 20 µM | 360,000 tested, 0.061% active | GFP/RFP ratio fluorescence, overnight; percent of plate control window, DMSO zero;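 active = GFP/RFP ratio change of at least 30% with cell ATP level not reduced by more than half and red fluorescence within 50% of control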; note: strong numbers were not always called active
#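 Material: RFP-PRO-GFP reporter HT1080 cells. Dosing: single-point 20 µM compound, 1% DMSO. Controls: DMSO and RFP-L50D-GFP cell wells. Timing: cells overnight before dosing, compound overnight, 37 °C, 5% CO2. Measure: GFP/RFP fluorescence ratio.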
# MT1-MMP act inh RFP – recorded beside MT1-MMP act inh, whose call it bears; RFP signal change, %; measured here: RFP expression control read;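 0 = vehicle wells; hits needed this value within 50% of zero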
# The depositor's hits bear a star; i = inactive; / = not tested or not shown; & = joins results of further samples.
SMILES,PABP FP inh,Rce1 inhib,CSC inhib,HIV Env fusion,UUG fidelity,eIF4H FP inh,MT1-MMP act inh,MT1-MMP act inh RFP
O=C(CCCc1c[nH]c2ccccc12)NCc1ccc2c(c1)OCO2,3,i,-3,/,-7,-17,-3,-6
CCOc1ccc(/C=N/OCC(=O)Nc2cc(S(=O)(=O)N3CCOCC3)ccc2OC)cc1,/,i,-10,-8,-17,/,-3,0
COc1cccc(N2CCN(C(=O)c3ccc(CS(=O)Cc4ccc(Cl)cc4)o3)CC2)c1 (stereo unspecified),-3,i,1,-4,1,6,5,-2
COc1ccc(N(C(=O)Cn2nnc(-c3ccc(Cl)cc3)n2)C(C(=O)NCC2CCCO2)c2ccc(C)cc2)cc1 (stereo unspecified),-8,i,15,-21,-10,-7,1,-2
Cc1ccc(NC(=O)NCC(c2cccnc2)N2CCOCC2)cc1 (stereo unspecified),8,i,12,-10,/,1,-1,0
COC(=O)c1cccc(CN2C(=O)C(C)Oc3ccc(C)cc32)c1 (stereo unspecified),/,/,/,19,-3,/,-5,-10
C[C@@H]1CCCCO[C@H](CN(C)Cc2ccccc2)[C@@H](C)CN([C@H](C)CO)C(=O)c2cc(NS(=O)(=O)c3ccc(Cl)cc3)ccc2O1,/,/,/,-14,-7&0,/,-7,-8
Cc1ccc(-c2csc3ncn(CC#N)c(=O)c23)cc1,41,i,-2,-38,-6,39,0,3
COC1=CC(=O)C(O)=C(CCCCCCC/C=C/CCCCCCCC2=C(O)C(=O)C=C(OC)C2=O)C1=O,/,i,-4,/,-9,/,9,-1
O=C(CNC(=O)c1cccc(Br)c1)N/N=C/c1cc(Br)cc(Br)c1O,0,i,7,13,-7,16,-2,5
Cc1ccc(NC(=O)COC(=O)/C=C/c2ccccc2)cc1S(=O)(=O)N1CCOCC1,6,i,-2,9,10,4,-2,-1
Cc1c(/C=N\NC(=O)c2csc3ccccc23)cnn1C,-4,i,-19,-474,-18,-7,2,2
COc1ccc(/C=C2\SC(=NCc3ccccc3)NC2=O)cc1,-6,i,-8,/,-9,5,-6,-3
Cc1ccccc1NC(=O)Nc1nc(CN)cs1,/,/,/,-15,-14,/,-1,4
CCc1c(C)sc(NC(=O)OC)c1C(=O)N1CCOCC1,-7,i,-5,-43,-2,-2,1,-1
CCN(CC(=O)Nc1c(F)cccc1F)C(=O)c1cccc(S(=O)(=O)N2CCCCCC2)c1,/,/,-19,-84,6,/,2,-9
O=C(N/N=C/c1ccccn1)c1cc([N+](=O)[O-])cc([N+](=O)[O-])c1,-2,i,-6,10,-5,8,9,7
COc1cc(NC(=O)COC(=O)CSc2ccc3ccccc3c2)c(C)cc1[N+](=O)[O-],-9,i,33,/,-20,-6,1,1
COc1ccc(CNC(=O)CCCN2C(=O)NC3(CCCC3)C2=O)cc1,/,/,/,7,6,/,-3,1
CC(=O)c1cccc(NC(=O)C2CCCN(S(C)(=O)=O)C2)c1 (stereo unspecified),0,i,-8,/,-5,-3,1,-4
N#Cc1ccc(C23CC4CC(CC(C4)C2)C3)[nH]c1=O,7,i,3,-53,-15,-9,0,1
C/C(=N\Nc1nccnc1Cl)c1ccc(F)cc1,13,i,14,-16,/,25,1,0
CC(=O)c1ccc(NC(=O)CSCCO)cc1,20,i,-17,/,/,3,3,5
CCCn1c(NCc2ccc3c(c2)OCO3)nc2ccccc21,-12,i,-4,/,-16,8,0,-1
Cc1cccc(-c2noc(CCCC(=O)NCC3CCCO3)n2)c1 (stereo unspecified),-6,i,-9,-2,-13,-6,-1,0

# Remaining list, next part:
SMILES,PABP FP inh,Rce1 inhib,CSC inhib,HIV Env fusion,UUG fidelity,eIF4H FP inh,MT1-MMP act inh,MT1-MMP act inh RFP
COC(=O)C1CCN(C(=O)c2ccc(NC(C)=O)cc2)CC1,-6,i,/,-19,-4,-4,1,2
C=CCSc1nnc(-c2nnc(SCC=C)n2CC)n1CC,-4,i,8,-8,-4,-6,4,1
O=C(NC1CCSC1=O)c1ccc(Oc2cccc(C(F)(F)F)c2)nc1 (stereo unspecified),6,/,-13,/,-12,-4,1,-1
O=C(CCN1c2ccccc2Sc2ccccc21)Nc1ccccc1,-7,i,/,/,-7,-5,5,-2
O=C(NNS(=O)(=O)c1ccc(F)cc1)c1ccc2c(c1)OCO2,-5,i,0,/,-14,-8,/,/
NC(=O)CC(NC(=O)c1ccccc1)c1ccc(NCCN2CCCCC2)c([N+](=O)[O-])c1 (stereo unspecified),-9,i,-1,-14,5,-5,1,3
O=C(N/N=C/c1ccco1)c1cccc([N+](=O)[O-])c1,2,i,3,5,/,-1,5,1
CC1CCCCN1S(=O)(=O)c1ccc(C(=O)Nc2sccc2C(N)=O)cc1 (stereo unspecified),3,i,-2,-73,-3,7,6,-3
CCN1CCN(c2nc3ccccc3nc2C(C#N)C(=O)OCc2ccccc2)CC1 (stereo unspecified),/,i,-7,2,-10,/,-23,-4
Cc1nc2cc(F)ccc2n1C1CCN(C(=O)c2ccc(F)cc2F)CC1,1,i,-10,2,/,2,8,-10
O=C(Nc1cccc2cccnc12)c1cccc(Cl)c1,2,i,13,-26,-12,-4,-2,1
COc1c(Br)cc(Br)cc1/C=N/n1c(C)nnc1C,0,i,13,-232,-6,-2,0,1
CCCOc1cc(NCc2ccccc2)c2ncn(C(C)C)c2c1,/,/,46,-12,-8,/,0,-3
COc1ccc(S(=O)(=O)N(CC(=O)NCC2CCCO2)c2ccc(F)cc2)cc1OC (stereo unspecified),4,i,17,-56,0,3,1,9
CCOc1ccccc1NC(=O)NCCc1c[nH]c2ccccc12,1,i,15,11,1,7,3,-1
CCN(CC(=O)Nc1ccccc1C(F)(F)F)C(=O)CCS(=O)(=O)c1ccc(Cl)cc1,/,i,-5,6,/,/,0,2
COc1ccc2nc(N3CCCC(C(=O)NCCc4ccc(OC)c(OC)c4)C3)sc2c1 (stereo unspecified),1,i,-41,-17,0,1,4,-4
C=CCN(C(=O)CCC(=O)Nc1cc(C)on1)C(C(=O)NC1CCCC1)c1cccnc1 (stereo unspecified),-9,/,5,/,-13,0,-1,11
CCOc1cc(C(=O)NCCCNC(=O)c2cc(OCC)c(OCC)c(OCC)c2)cc(OCC)c1OCC,/,i,-4,20,/,/,1,-6
Cc1cc(S(=O)(=O)Nc2cc(C)c(O)c(C)c2)c(C)s1,13,i,17,6,-2,2,-1,0
CC(=O)NCC1=C(NC(C)=O)C2CC1C(C)(C)C2C (stereo unspecified),-6,i,-9,/,/,-2,/,/
CCOC(=O)Cc1csc(NC(=O)/C=C/c2ccc(Br)o2)n1,8,i,-2,0,-3,2,-4,-7
COc1ccc(C2CC(c3cc(OC)ccc3OC)n3nnnc3N2)cc1 (stereo unspecified),-6,i,-10,/,-2,-4,-3,0
COc1ccc(OC)c(S(=O)(=O)N2CCC(C(=O)NCCC3=CCCCC3)CC2)c1,11,i,-1,-79,7,-4,6,4
O=C(Cc1ccccc1)N/N=C/c1cccn1-c1ccc([N+](=O)[O-])cc1,4,i,4,-16,/,-2,5,-6

# 14 structures out of the list, arranged by molecular weight, lowest first:
SMILES,PABP FP inh,Rce1 inhib,CSC inhib,HIV Env fusion,UUG fidelity,eIF4H FP inh,MT1-MMP act inh,MT1-MMP act inh RFP
CC(=O)NCC1=C(NC(C)=O)C2CC1C(C)(C)C2C (stereo unspecified),-6,i,-9,/,/,-2,/,/
COC(=O)C1CCN(C(=O)c2ccc(NC(C)=O)cc2)CC1,-6,i,/,-19,-4,-4,1,2
CCOc1ccccc1NC(=O)NCCc1c[nH]c2ccccc12,1,i,15,11,1,7,3,-1
C=CCSc1nnc(-c2nnc(SCC=C)n2CC)n1CC,-4,i,8,-8,-4,-6,4,1
O=C(NNS(=O)(=O)c1ccc(F)cc1)c1ccc2c(c1)OCO2,-5,i,0,/,-14,-8,/,/
O=C(CCN1c2ccccc2Sc2ccccc21)Nc1ccccc1,-7,i,/,/,-7,-5,5,-2
COc1ccc(C2CC(c3cc(OC)ccc3OC)n3nnnc3N2)cc1 (stereo unspecified),-6,i,-10,/,-2,-4,-3,0
Cc1nc2cc(F)ccc2n1C1CCN(C(=O)c2ccc(F)cc2F)CC1,1,i,-10,2,/,2,8,-10
CCOC(=O)Cc1csc(NC(=O)/C=C/c2ccc(Br)o2)n1,8,i,-2,0,-3,2,-4,-7
CC1CCCCN1S(=O)(=O)c1ccc(C(=O)Nc2sccc2C(N)=O)cc1 (stereo unspecified),3,i,-2,-73,-3,7,6,-3
CCN1CCN(c2nc3ccccc3nc2C(C#N)C(=O)OCc2ccccc2)CC1 (stereo unspecified),/,i,-7,2,-10,/,-23,-4
COc1ccc2nc(N3CCCC(C(=O)NCCc4ccc(OC)c(OC)c4)C3)sc2c1 (stereo unspecified),1,i,-41,-17,0,1,4,-4
CCN(CC(=O)Nc1ccccc1C(F)(F)F)C(=O)CCS(=O)(=O)c1ccc(Cl)cc1,/,i,-5,6,/,/,0,2
CCOc1cc(C(=O)NCCCNC(=O)c2cc(OCC)c(OCC)c(OCC)c2)cc(OCC)c1OCC,/,i,-4,20,/,/,1,-6

# Other structures.
SMILES,PABP FP inh,Rce1 inhib,CSC inhib,HIV Env fusion,UUG fidelity,eIF4H FP inh,MT1-MMP act inh,MT1-MMP act inh RFP
CCCOc1ccc(-c2c(C(=O)N/N=C(\C)c3ccncc3)nnn2-c2nonc2N)cc1,14,i,-17,2,-23,-8,-4,0
CCOC(=O)C1(CCCc2ccccc2)CCN(C(=O)CN2C(=O)CSC2=O)CC1,-3,i,12,2,/,-12,-4,-9
N#Cc1cc(C#N)c(SCC(=O)NCC2CCCO2)nc1N (stereo unspecified),2,i,/,-12,/,-1,2,3
CCN1C(=O)C(CC(=O)Nc2c(C)cccc2C)Nc2cc(S(=O)(=O)N(C)C)ccc21 (stereo unspecified),-24,i,-13,-3,4,8,2,2
COC(=O)c1cccc(NC(=O)c2ccc(S(=O)(=O)N3CCN(C)CC3)cc2)c1,12,i,11,-18,-7,-2,-5,3
O=C(NCc1cn2ccccc2n1)c1ccco1,0,i,-4,-27,-14,4,1,4
COc1ccccc1/C=C/C=N/N1CCN(Cc2ccccc2)CC1,-9,i,8,9,/,-5,-4,0
COc1cc(/C=C(/C#N)c2nc3ccccc3[nH]2)ccc1OCc1ccc(C(=O)O)o1,14,i,5,/,-9,6,-8,-4
COc1ccc(C(CNC(=O)c2oc3ccc(Br)cc3c2C)N2CCCCC2)cc1 (stereo unspecified),7,i,-3,3,0,0,-2,0
COc1ccc(NS(=O)(=O)c2cc([N+](=O)[O-])ccc2N/N=C/c2c(C)[nH]c3ccccc23)cc1,/,/,/,-48,-9,/,-99,2
CCN1C(=O)C(=O)N(CC(=O)N(C)CC(=O)Nc2ccccc2C(F)(F)F)C1=O,/,/,-5,/,-15,/,2,4
Cc1ccn(-c2n[nH]c(C)c2[N+](=O)[O-])n1,-2,i,-16,2,/,9,2,4
CCC1CCCCN1S(=O)(=O)c1ccc(S(=O)(=O)N(Cc2ccccn2)CC2CCCO2)cc1 (stereo unspecified),7,i,79*,-13,/,0,-10,-7
